VACV mCherry inh: vaccinia inhibition (mCherry reporter). 0.63% of 310,000 active. Vaccinia virus mCherry reporter infection, fluorescence; about a quarter of the inactives have no number. AID 720579. Potency, µM (titrated, usually from 36.5 µM), for the others: at the highest dose activity change, negative = inhibition, hits mostly inhibitors; active = well fitted inhibition curve with a large enough effect; inconclusive = small, poorly fitted or top-dose-only effect; inactive = no such curve, though single readings can be large or run the other way; tested in A549 cells; note: nearly all actives have a fitted effect of over 35% in size; inactives centre near -10
VACV Venus inh: inhibitors of vaccinia virus (Venus reporter); AID 720580; Potency, µM (top dose mostly 36.5 µM), for inactives: top-dose activity change, negative = inhibition, most hits filed as inhibitors; 0.46% of 330,000 active; Vaccinia virus Venus reporter expression, fluorescence; active means well fitted inhibition curve with a large enough effect; inconclusive means small, poorly fitted or top-dose-only effect; inactive means no such curve, though single readings can be large or run the other way; tested in A549 cells; note: nearly all actives have a fitted effect of over 30% in size; inactives centre near -10
An asterisk follows results filed as active; i = inactive; ? = inconclusive; nt = not tested or not shown; & = joins results of further samples; [ ] = remark or other dose. % is set by controls: 0 for no effect and ±100 for the full control effect; potency is the fitted concentration of half-maximal effect.

| Compound | VACV mCherry inh | VACV Venus inh |
| --- | --- | --- |
| COC(=O)c1sccc1NC(=S)Nc1ccc(F)cc1F | i | -10.9% |
| COC(CNC(=O)c1c[nH]c2ccc(S(=O)(=O)N(C)c3ccc(F)cc3)cc2c1=O)OC | -17.6% | -11.4% |
| Cc1nccn1Cc1cccc2ccccc12 | -15.3% | -15.5% |
| N/C(=N\OC(=O)c1ccc2c(c1)OCO2)c1ccc(Cl)cc1 | -3.8% | -6.0% |
| COc1ccc(CCNc2cc(C)nc3c(-c4ccccc4)cnn23)cc1OC | -10.6% | -20.0% |
| CN(C)S(=O)(=O)Oc1ccsc1C(=O)Nc1ccc(Cl)cc1 | ? | -24.9% |
| Cc1c(C(=O)OCc2nc3ccsc3c(=O)[nH]2)oc2ccccc12 | -14.7% | -10.1% |
| CCC(C)(C)NC(=O)C(c1ccc(O)cc1)N(CCOC)C(=O)CCC(=O)Nc1nccs1 (configuration not stated) | -6.4% | -5.3% |
| COc1ccc(CNS(=O)(=O)CCNCc2ccco2)cc1 | i | -14.7% |
| CCN(CC)S(=O)(=O)c1ccc(N2CCCC2)c(NC(=O)c2c(-c3ccccc3)noc2C)c1 | -20.6% | -5.8% |
| Cc1cc(Cl)ccc1NC(=O)c1cccc(NC(=O)N2CCSc3ncccc32)c1 | -9.7% | -6.9% |
| Cc1ccc(Cn2nc(C)c(NC(=O)CCCn3nc(C)c([N+](=O)[O-])c3C)c2C)cc1 | -6.1% | -19.6% |
| Cc1nc(NC(=O)COC(=O)C2=NNC(=O)CC2)c(Cl)cc1Cl | -14.1% | -11.5% |
| COc1cccc(CNC(=O)C2CCCN(c3nn4cc(-c5ccc(C)cc5)nc4s3)C2)c1 (configuration not stated) | -13.6% | -14.5% |
| CC(C)(C)OC(=O)N1CC=C2C(C#N)=C(N)C(C#N)(C#N)[C@H](c3cccnc3)[C@H]2C1 | -6.3% | 1.9% |
| CC(C)(C)NC(=O)C(=O)N/N=C/c1ccc(Br)cc1 | 1.1% | -6.9% |
| CNC(=S)Nc1cc(OC)c(NC(=O)c2ccco2)cc1OC | -27.2% | -18.6% |
| Cc1onc(NC(=O)CSCC(=O)O)c1Br | -3.3% | 1.8% |
| Cc1cc(NC(=O)CSc2nc(-c3cccc(F)c3)nc3c2c(=O)n(C)c(=O)n3C)no1 | 2.1% | -6.5% |
| CCOc1ccc(C2c3c(oc4ccccc4c3=O)C(=O)N2c2nnc(C)s2)cc1OC (configuration not stated) | -4.1% | 1.8% |
| C[C@H](O)[C@@H]1C(=O)N2CCc3c([nH]c4ccccc34)[C@@H]2C[C@@H]1N(C)C(=O)Nc1cc(Cl)cc(Cl)c1 | 12.6µM* | ? |
| COc1ccccc1CNC(=O)CNC(=O)c1ccc(Br)o1 | -15.4% | -17.3% |
| COCCNC(=O)C(c1ccco1)N(C(=O)Cn1nnc2ccccc21)c1cc(C)ccc1C (configuration not stated) | -9.5% | -12.2% |
| CC(Sc1nc(-c2ccccc2)cc(C(F)(F)F)n1)C(=O)N1CCOCC1 (configuration not stated) | nt | -9.1% |
| Cc1ccc(N(C)S(=O)(=O)c2ccc3c(c2)NC(=O)C(C)S3)cc1 (configuration not stated) | -5.7%[7.34 µM] | -0.3%[7.34 µM] |
| CCOc1ccc(C2C(C#N)=C(N)SC(N)=C2C#N)c(OCC)c1 | nt | -12.9% |
| CCOc1ccccc1OCC(=O)Nc1nc2ccccc2[nH]1 | i | -9.2% |
| CCCc1nnc(SCC(=O)Nc2ccccc2F)o1 | -5.1% | -1.9% |
| O=C(NC1CCCCC1)c1cccc2c(-c3ccc(F)c(F)c3)coc12 | 14.1% | 17.6% |
| CCC(=O)Nc1cc(-c2nnc(OC)c3ccccc23)ccc1N1CCOCC1 | -0.4% | -18.5% |

Given with two lines to a compound: entries from further up
Sequence of screens – VACV mCherry inh | VACV Venus inh
CCOc1ccc(C2C(C#N)=C(N)SC(N)=C2C#N)c(OCC)c1
→ nt | -12.9%
CCOc1ccccc1OCC(=O)Nc1nc2ccccc2[nH]1
→ i | -9.2%
CCCc1nnc(SCC(=O)Nc2ccccc2F)o1
→ -5.1% | -1.9%
O=C(NC1CCCCC1)c1cccc2c(-c3ccc(F)c(F)c3)coc12
→ 14.1% | 17.6%
CCC(=O)Nc1cc(-c2nnc(OC)c3ccccc23)ccc1N1CCOCC1
→ -0.4% | -18.5%

(further entries)
| Compound | VACV mCherry inh | VACV Venus inh |
| --- | --- | --- |
| COCCn1c(=S)[nH]c2cc(C(=O)NCCc3ccccc3)ccc2c1=O | -1.2% | -11.1% |
| O=C(COC(=O)CNC(=O)C1CCCCC1)Nc1ccc(Cl)cc1F | -3.0% | -5.0% |
| Cc1c(C(c2cc(O)ccc2Cl)c2c(C)n(C)n(-c3ccccc3)c2=O)c(=O)n(-c2ccccc2)n1C | i | -13.6% |
| CCOC(=O)c1cnc2c(C(=O)OCC)cnn2c1N | -18.5% | -21.5% |
| Cc1csc2nc(CN3CCN(CC(=O)N(C)C)CC3)cc(=O)n12 | -6.4% | 12.9% |
| CCOc1ccc(N=CC2=C(O)CC(c3ccco3)CC2=O)cc1 (configuration not stated) | -3.8% | -14.3% |
| CC1(C)Cc2ccccc2C(c2cc3ccccc3oc2=O)=N1 | nt | ? |
| COC(=O)C1C(c2ccc(Br)cc2)Nc2nnc(C(F)(F)F)n2C1(C)O (configuration not stated) | -6.6% | -19.4% |
| COc1ccc(OC)c(N2Cc3ccccc3C2=N)c1 | -5.6% | -8.0% |
| CCNc1nc(NC(C)C)nc(OCC)n1 | nt | -23.4% |
| CCOC(=O)c1oc2nc3c(cc2c1N)CCCC3 | i[7.34 µM] | -10.7%[7.34 µM] |
| Cc1cc(Nc2ccccc2)c2c([N+](=O)[O-])c(C)cc(C)c2n1 | -16.4% | -23.9% |
| COc1ccc(-n2c(C)nc3cc(C(=O)NC4CCCC4)ccc32)cc1 | -10.5% | -16.4% |
| Cc1ccc(/C=N/NC(=O)CSc2nc3ccccc3n2C)s1 | -13.9% | -10.4% |
| O=C1c2ccccc2CN1CCNC(=S)NC1CCCCC1 | i | 2.1% |
| COCc1ccc(C(=O)N2CCCC(Nc3ccc(C(C)C)cc3)C2)o1 (configuration not stated) | -3.4% | -20.0% |
| CCc1nc2ccc(C(=O)NCCCn3ccnc3)cn2c1N(CC)Cc1cccc(Br)c1 | ? | -13.8% |
| CN1C(=O)c2ccccc2C(C(=O)O)C1c1cn(C)c2ccccc12 (configuration not stated) | -1.6% | 0.8% |
| Cc1ccc(N2C(=O)c3cccc([N+](=O)[O-])c3C2=O)cc1C | -8.3% | -3.3% |
| CCCc1nc2ccccc2n2c(-c3ccccc3)c3c(=O)n(C)c(=O)n(C)c3c12 | -18.3% | -9.6% |
| COc1ccccc1/C=C/C(=O)NNC(=O)c1cccs1 | i | -3.4% |
| Cc1nc2c(C(=O)NCc3ccccc3)c[nH]n2c(=O)c1Cc1ccccc1Cl | -15.0% | -12.1% |
| CCOC(=O)COn1c(-c2cccc(Cl)c2)nc2ccc([N+](=O)[O-])cc21 | i | -4.1% |
| O=C(NCCc1nc2ccccc2[nH]1)C1CCC(=O)N(CCc2cccc(F)c2)C1 (configuration not stated) | -11.1% | -0.1% |
| O=C(NNC(=O)C(c1ccccc1)c1ccccc1)c1cccs1 | -1.8% | -9.0% |
| CC(Sc1ncn[nH]1)C(=O)c1c(N)n(C)c(=O)n(C)c1=O (configuration not stated) | -1.9% | -8.9% |
| COC(=O)[C@H](Cc1ccccc1)NC(=O)[C@@H]1C[C@H]1[C@@H](NC(=O)OCc1ccccc1)c1ccccc1 | i | -2.3% |
| CCN(CC)CCCN1C=C2C(=O)C(C)(OC(=O)CCC(=O)OC)C(=O)C=C2C=C1C1CC1 (configuration not stated) | -13.0% | 0.6% |
| CN(Cc1ccc([N+](=O)[O-])cc1)c1ccccc1 | -19.6% | -2.2% |
| COCC(C)n1c(SCC(=O)NC(=O)NCc2ccccc2)nc2ccccc2c1=O (configuration not stated) | -7.6% | -21.0% |
| CC(NC(=O)C12CC3CC(C1)CC(n1cncn1)(C3)C2)C12CC3CC(CC(C3)C1)C2 (configuration not stated) | nt | -27.1% |
| COCCNC(=O)CN(C(=O)CCC(=O)Nc1nccs1)c1ccc2c(c1)OCO2 | 5.3% | -12.9% |
| CC1=CC(C)(C)NC(=S)N1c1ccc([N+](=O)[O-])cc1 | -17.4% | 0.8% |
| COc1ccc(CC(=O)OC(C)C(=O)Nc2ccc(Cl)cn2)cc1 (configuration not stated) | -17.7% | -11.0% |
| COc1ccc(C2=Nc3ccccc3NC(=O)C2N(CCCn2ccnc2)C(=O)c2cccc(S(C)(=O)=O)c2)cc1 (configuration not stated) | 19.1% | 4.0% |
| CN1C(=O)C(=Cc2ccccc2Oc2ccc(Cl)cc2)C(=O)N(C)C1=O | nt | 9.4% |
| O=C(/C=C/c1ccc(OCCCF)cc1)Nc1ccnc(-c2ccncc2)n1 | -12.2% | -17.0% |
| COc1ccc(C(=O)C[n+]2cccc3cc(C)ccc32)cc1 | -29.0% | 8.7% |
| CCc1ccc(C(C)NC(=O)c2cccs2)cc1 (configuration not stated) | 3.9% | -2.0% |
| CCCNC(=O)C1(C)CCCN(C(=O)COCc2ccccc2)C1 (configuration not stated) | 26.8% | 0.8% |
| CNc1cc(-c2c(OC)cccc2OC)ncn1 | 29.9% | -0.9% |
| CSc1cccc(NC(=O)c2nnn(CC(=O)Nc3cc(C)cc(C)c3)c2N)c1 | 5.5%[7.34 µM] | 2.1%[7.34 µM] |
| COc1cc(OC)cc(C(=O)N2CCCC(c3nc(-c4ccc(C)o4)no3)C2)c1 (configuration not stated) | -13.5% | -4.4% |
| COc1ccc(CN=C2NC(=O)CC(C(=O)Nc3ccccc3C)S2)cc1 (configuration not stated) | -6.4% | -17.5% |
| CC(C)(C)OC(=O)N1CCC[C@H]1C(=O)NCc1ccc(Cl)cc1Cl | -24.8% | -16.2% |
| Cc1ccc(S(=O)(=O)N(C)CC(=O)NCCCn2ccnc2)cc1 | i | -2.6% |
| O=[N+]([O-])c1ccc(/C=C/c2nc3ccc([N+](=O)[O-])cc3[nH]2)cc1 | -0.3% | -7.8% |
| Cc1cc(C)cc(NC(=O)N2CCC(N3CCCCC3)CC2)c1 | -1.8% | -0.8% |
| CCC(C)(C)NC(=O)CN(Cc1ccc(F)cc1)C(=O)CCC(=O)Nc1ccccn1 | -7.3% | -14.3% |
| COc1cccc(-c2nnc(NC(C)=O)o2)c1 | -5.6% | -12.4% |
| CCOc1ccc(-n2c(-c3ccc(C)cc3)nc3c(cnn3-c3ccccc3)c2=O)cc1 | ? | ? |
| CC1CC(C)CN(C(=O)/C(=C\c2ccccc2)c2ccccc2)C1 (configuration not stated) | -1.8% | -14.1% |
| C=CCNC(=O)C1CCN(C(=O)c2ccc(-c3ccccc3)cc2)CC1 | i | -16.7% |
| CCOc1ccccc1O[C@H](c1ccccc1)[C@H]1CNCCO1 | -2.5% | -20.4% |
| CCOC(=O)/C(=C\C=C1/Sc2ccccc2N1CC)C(C)=O | ? | -23.7% |
| COCCN(C(=O)c1cc2c(s1)CCCCC2)c1c(N)n(Cc2ccccc2)c(=O)[nH]c1=O | i | -13.1% |
| Cn1c(=O)c2c(nc(N/N=C/c3cccs3)n2C)n(C)c1=O | i | -6.6% |
| O=C(Nc1cccc(C(F)(F)F)c1)C1CCCCC1 | -22.8% | -15.6% |
| CCCN1CCN(S(=O)(=O)c2cc3c(cc2C)NC(=O)CO3)CC1 | i | -4.9% |
| CCc1ccc2c(c1)NC(=O)C2(C)Cc1ccc(Cl)cc1 (configuration not stated) | i | -15.8% |

(listing goes on)
| Compound | VACV mCherry inh | VACV Venus inh |
| --- | --- | --- |
| COC(=O)C1=C(C)NC(C)=C(C(=O)OC)C1C(=O)OCCN1C(=O)c2ccccc2C1=O | -5.5% | 6.8%&-8.6% |
| Cn1nnnc1SCC(=O)Nc1ccccc1[N+](=O)[O-] | nt | -17.4% |
| O=c1[nH]c(CO)nc2c1oc1ccccc12 | -9.3% | -11.1% |
| O=[N+]([O-])c1cccc(S(=O)(=O)Nc2cccc(-c3ccc(N4CCCC4)nn3)c2)c1 | -10.6% | -13.8% |
| Cc1ccc(CN2CCSc3ccc(C(=O)Nc4ccc(Cl)cc4)cc32)cc1 | -5.8% | -8.3% |
| CCNC(=O)NC(=O)C(C)Oc1ccc(C(=O)OC)cc1 (configuration not stated) | nt | -11.9% |
| CS(=O)(=O)NN1C(=O)c2ccccc2NC1c1cccc2cccnc12 (configuration not stated) | -21.3% | -1.8% |
| O=C(C=C1SCCS1)/C=C/c1ccco1 | i | -9.5% |
| O=C(Nc1ccc(-c2nc3ccccc3s2)c(O)c1)c1ccc(Br)cc1 | -5.0% | 3.2% |
| Cn1cc(S(=O)(=O)c2cccc(Cl)c2)c(=O)c2cc(F)c(N3CCN(c4ccc(F)cc4)CC3)cc21 | -3.0% | -20.6% |
| COc1ccc(Cn2ccnc2SCC(=O)NC2CCCCC2)cc1 | -5.5% | -17.4% |
| O=S(=O)(Nc1ccccc1N1CCCCC1)c1ccc(F)cc1F | -13.5% | -14.0% |
| COc1cccc(CNC(=O)CCNS(=O)(=O)c2cccc3nsnc23)c1 | -1.7% | -4.2%&-4.6% |
| O=C(OCc1cccc([N+](=O)[O-])c1)c1cccnc1Cl | -8.4% | -9.0% |
| CCOC(=O)C1(CCc2ccccc2)CCN(C(=O)C(C)n2cncn2)CC1 (configuration not stated) | i | 0.2% |
| Cn1c(=NC(=O)COc2ccccc2)sc2ccccc21 | -2.1% | -10.5% |
| O=C(C[n+]1ccc(Cl)c2ccc(Cl)cc21)c1ccc(F)cc1 | -15.2% | -5.7% |

Compound activity deposited in PubChem BioAssay by National Center for Advancing Translational Sciences (NCATS).
